# Vaccinia Venus = vaccinia inhibition (Venus reporter). Vaccinia virus Venus reporter expression, fluorescence. Potency, µM (series often up to 36.5 µM), for the others: top-dose activity change, negative = inhibition, usual class: inhibitors. 0.46% of 330,000 active; active means well fitted inhibition curve with a large enough effect; inconclusive means small, poorly fitted or top-dose-only effect; inactive means no such curve, though single readings can be large or run the other way; tested in A549 cells; further: nearly all actives have a fitted effect of over 30% in size; inactives centre near -10
# VACV mCherry inh = inhibitors of vaccinia virus infection (mCherry reporter signal). Vaccinia virus mCherry reporter infection, fluorescence; about a quarter of the inactives have no number. Potency, µM (doses to about 36.5 µM), inactives show at the highest dose activity change, negative = inhibition, hits mostly inhibitors. 0.63% of 310,000 active. AID 720579; active = well fitted inhibition curve with a large enough effect; inconclusive = small, poorly fitted or top-dose-only effect; inactive = no such curve, though single readings can be large or run the other way; tested in A549 cells; further: nearly all actives have a fitted effect of over 35% in size; inactives centre near -10
# * = called active by the depositor; i = inactive; u = inconclusive; x = no result given; & = joins results of further samples; [ ] = remark or other dose. On the % scale 0 is the no-effect control and ±100 the full control effect; potency means the concentration at half of the fitted maximal effect.
SMILES,Vaccinia Venus,VACV mCherry inh
CCOC(=O)c1cc(NC(=O)c2cccs2)ccc1N1CCOCC1,-15.1%,-4.7%
Cc1ccc(C(=O)NC2CCCCCC2)cc1N1CCCC1=O,u,i
CCOC(=O)C1=C(CNCc2ccccc2Cl)NC(=O)NC1c1ccc2c(c1)OCO2 (centres undefined),u,x
CCN1C[C@@H]2[C@@H]3C(=O)N(C)C(=O)[C@@H]3[C@](C)(C1=O)N2C(=O)c1ccc(Cl)cc1,-11.3%,i
COc1ccc(NC(=O)CSc2nnnn2C2CCCCC2)cc1,-7.3%,-1.9%
Cc1[nH]ncc1-c1nc2ccccc2[nH]1,-7.0%,-20.0%
OC[C@@H]1CN(Cc2cccc(C(F)(F)F)c2)C[C@H](n2cnc3c(NCc4ccco4)ncnc32)O1,-5.5%,-13.9%
COCCNC(=O)c1ccc2c(c1)ncn2-c1ccc(C)c(Cl)c1,u,-16.5%
CCN(CC)c1ccc(-c2n[nH]c(=S)n2-c2ccccc2)cc1,u,-17.6%
COc1ccc(NC(=O)c2ccco2)cc1NC(=O)c1ccc(C)cc1,-5.5%,-12.7%
COc1ccccc1CNc1ncncc1-c1ccccc1CN(C)C,0.0%,-11.7%
Cc1cc(C(=O)NCc2ccc(Cl)cc2)c2c(C)nn(-c3ccccc3)c2n1,1.0%,0.8%
Cc1ccc(CN(C(=O)CNC(=O)c2cccs2)C(C(=O)NCC2CCCO2)c2ccccc2)cc1 (centres undefined),-22.1%,-19.4%
CC1(C(=O)NS(=O)(=O)c2ccccc2)CCN1C(=O)COc1ccc(Cl)cc1 (centres undefined),15.2%,-13.3%
CCOc1ccc(-c2ccc(NS(=O)(=O)c3cc(C)c(C)cc3C)cc2)nn1,-16.6%,-2.0%
CCOc1ccc(NC(=O)C(CC(C)C)N2Cc3ccccc3C2=O)cc1 (centres undefined),-9.2%,-0.7%
O=C(c1cc(COc2cccc(C(F)(F)F)c2)on1)N1CCCC1,-8.3%,-3.4%
CC(C)[C@H](NC(=O)c1ccco1)C(=O)OCC(=O)Nc1ccccc1OC(F)F,-6.0%,-1.6%
CCn1cnc2c1c(=O)n(CC(=O)NCc1ccccc1)c(=O)n2Cc1ccccc1,-11.0%,-24.2%
O=C(COC(=O)CNC(=O)c1ccccc1)NC12CC3CC(CC(C3)C1)C2,-4.6%,-12.1%
CC1=C(C(=O)Nc2ccc(C)cc2C)C(c2ccc([N+](=O)[O-])cc2)n2ncc(C(=O)Nc3ccc(F)cc3)c2N1 (centres undefined),-12.4%,-1.7%
CC(/C=N/NC(=O)c1cc(-c2cccn2C)n[nH]1)=C\c1ccccc1,-2.0%,-19.2%
COc1cc(CNc2cccc(F)c2)cc(Br)c1O,-12.9%,-14.0%
COc1ccc(OC)c(CC(NC(C)=O)C(=O)NC2CCN(C(=O)c3cccc(C)c3)CC2)c1 (centres undefined),-2.3%,-10.6%
CNc1nc(C)cc(C)c1S(=O)(=O)c1ccc(Cl)cc1,-10.0%,x
COc1ccc(/C=C2/C(=O)N(c3nc4ccccc4s3)N=C2CSc2ccc(Cl)cc2)cc1,-11.0%,-9.2%
O=C(COc1ccc(Cl)cc1Br)N1CCN(S(=O)(=O)c2ccccc2)CC1,-20.2%,-22.3%
O=C(CN1CCN(C(=O)N2CCOCC2)CC1)Nc1ccc(Br)cc1,-4.2%,-3.8%
CCOC(=O)N1CCN(C(=O)CCc2ccc(S(=O)(=O)NCC(C)C)cc2)CC1,-3.3%,-14.0%
O=C(c1ccc(F)cc1)N1c2nc(-c3ccco3)nn2C2(CCCCC2)[C@@H]2CCCC[C@@H]21,-9.6%,-1.0%
COc1ccc(CN(Cc2nc3ccccc3c(=O)[nH]2)C(=O)NC2CCCCC2)cc1,-15.5%,-1.5%
COc1ccc(CCN(C)C(=O)CSc2nnc(C3CC3)n2N)cc1OC,-5.7%,i
O=C(N/N=C/c1ccccn1)c1ccc(Br)cc1,u,u
CCOC(=O)c1c(C)[nH]c(C(=O)COc2ccc3c(c2)OCO3)c1C,-25.5%,x
CSc1nccc(Oc2ccccc2Cl)n1,-4.8%,-4.9%
CCCCN(C)c1c(C)nc2ccc(C(=O)NC3CCN(C)CC3)cn12,-2.0%,9.8%
COc1ccc(CSCC(=O)Nc2ccccc2)cc1[N+](=O)[O-],-13.2%,i
CCOc1ccccc1C(=O)N(Cc1ccc(N(C)C)cc1)Cc1ccco1,-10.3%,i
CCCNC(C)C(=O)Nc1ccccc1C (centres undefined),0.0%&-13.5%,-14.8%&-10.9%
Cc1ccc(CNc2ccc(N3CCOCC3)cc2)s1,1.8%,6.9%
CCCOc1ccc(N2C(=O)CC(NCc3ccc(S(N)(=O)=O)cc3)C2=O)cc1 (centres undefined),-7.8%,-9.5%
Cc1nc(CCNC(=O)CC2C(=O)NCCN2CC(C)(C)C)nc2c1CCC2 (centres undefined),-8.8%,-18.0%
CC(C)(C)C(=O)N1CCN(C(c2ccccc2)c2ccccc2)CC1,-8.7%,-16.4%
Cc1ccc(NC(=O)c2nc(S(C)(=O)=O)ncc2N(Cc2ccco2)Cc2ccco2)cc1,-6.9%,-15.6%
CCCCc1ccc(Nc2ncccc2C#N)cc1,-4.1%,x
Cc1ccsc1/C=N/n1c(-c2ccccc2)n[nH]c1=S,-11.6%,-10.1%
NNC(=O)CN1C(c2ccc(Br)cc2)=Nc2ccc(Br)cc2C1c1ccccc1 (centres undefined),-0.3%,-7.2%
CCS(=O)(=O)C1=NSC2=NC(=O)/C(=C\c3ccc(OC(=O)c4ccco4)c(OC)c3)C(=N)N21,8.5%[7.34 µM],-4.2%[7.34 µM]
CCOC(=O)Cc1cc(C(=O)Nc2ccc(Br)cc2)sc1-c1ccc(C)cc1,-4.9%,-10.8%
COc1ccc(OC)c(NC(=O)c2cccc(NC(=O)c3ccccc3C(=O)O)c2)c1,-4.5%,i

# Entries of single compounds, quoted from the list. Order of values: Vaccinia Venus, VACV mCherry inh
# Entry for CCCCc1ccc(Nc2ncccc2C#N)cc1 = -4.1%, x
# Entry for Cc1ccsc1/C=N/n1c(-c2ccccc2)n[nH]c1=S = -11.6%, -10.1%

# Other structures follow:
SMILES,Vaccinia Venus,VACV mCherry inh
Cc1ccc(S(=O)(=O)N(C)C[C@H]2Oc3ncc(-c4ccccc4)cc3C(=O)N([C@@H](C)CO)C[C@@H]2C)cc1,-24.4%,u
CCCCCOC(=O)c1[nH]c2c(c1C)C(=O)CC(c1ccco1)C2 (centres undefined),u,u
O=C(c1ccco1)N(Cc1cccnc1)c1nc2c(F)cccc2s1,-19.8%,-0.6%
CSCCC(NC(=O)c1ccco1)C(=O)N1CCN(C(c2ccccc2)c2ccccc2)CC1 (centres undefined),1.3%,-13.9%
CCCCn1c(-c2ccc(F)c(F)c2)nc2cc3[nH]c(=O)c(C(C)C)nc3cc21,u,-28.5%
CC1=C(C(=O)Nc2ccccc2C)C(c2sccc2C)n2ncnc2N1 (centres undefined),1.6%,-7.7%
Cc1cc(C(=O)NC2CC(C)(C)Cc3c2cnn3-c2cccc(F)c2)nn1C (centres undefined),-16.3%,i
Cc1ccc(C)c(SCC(=O)Nc2cccc(S(=O)(=O)N3CCOCC3)c2)c1,-21.8%,-19.4%
O=C(Nc1ccc(Oc2cccc(C(F)(F)F)c2)nc1)c1ccco1,-21.2%,-3.6%
CC(c1ccccc1)N1CCC(CNC(=S)Nc2cccc(Cl)c2)C1 (centres undefined),-5.6%,-9.3%
Cc1cc(C)cc(NC(=O)COC(=O)C2CC3C=CC2C3)c1 (centres undefined),-7.7%,-18.2%
CC1CCCN(C(=O)COC(=O)c2ccc3[nH]c4c(c3c2)CCCC4)C1 (centres undefined),u,u
CC(=O)NCCc1nc2ccccc2n1CCc1ccccc1,-15.9%,-14.1%
O=c1[nH]c(Nc2ccccn2)cc2ccccc12,-11.6%,u
O=C1c2ccccc2C(=O)N1CCCc1nc(-c2cccnc2)no1,u,-15.6%
O=C(C(O)c1ccccc1)N1N=C(c2ccccc2)CC1(O)C(F)(F)F (centres undefined),-10.4%,-6.5%
CC(=O)N1N=C(c2ccc(NS(C)(=O)=O)cc2)CC1c1ccc2nccnc2c1 (centres undefined),-18.3%,i
O=C(CCCc1ccccc1)Nc1ccccc1[N+](=O)[O-],u,-6.8%
Cc1sc2ncnc(N3CCC(C(=O)N(C)CC(=O)Nc4cccc(F)c4)CC3)c2c1C,u,u
COc1cccc(C(=O)C2CCCN(Cc3cn[nH]c3C3CCCCC3)C2)c1 (centres undefined),-20.3%,u
C[C@@]12CC(=O)NC1N(C(=O)c1cccc(C(F)(F)F)c1)C(c1ccccc1OC(=O)c1cccc(C(F)(F)F)c1)C2 (some centres undefined),-29.1%,u
CC1(C)N=C(N)N=C(N)N1c1ccccc1,u,x
CCOc1c(Cl)cc(CNc2ccc(N3CCCC3)cc2)cc1OC,-25.6%,-14.6%
COc1ccc(CN2C(=O)c3ccccc3C2c2nnnn2Cc2ccccc2)cc1 (centres undefined),-0.9%,0.0%
Cc1ccc(NC(=S)N/N=C/c2ccc(Cl)c([N+](=O)[O-])c2)cc1,u,u
CCOc1cc2[nH]c(=S)n(CCC(=O)NC3CCCCC3)c(=O)c2cc1OCC,u,-15.1%
COc1ccc(CCNC(=O)c2ccc3nc(CCc4ccccc4)oc3c2)cc1OC,-1.5%,-8.6%
CCC(c1nnnn1C1CCCC1)N1CCN(c2ccccc2)CC1 (centres undefined),-18.3%,x
CCOC(=O)c1c(NC(=O)CSc2c[nH]c3ccccc23)sc2c1CCC2,-27.3%,u
C[C@@H]1CNC(=O)c2c(C(=O)N[C@@H](Cc3c[nH]c4ccccc34)C(=O)OC(C)(C)C)ncn21,-13.8%,-9.2%

# Molecules listed so far that contain a tert-butyl group (three):
SMILES,Vaccinia Venus,VACV mCherry inh
Cc1nc(CCNC(=O)CC2C(=O)NCCN2CC(C)(C)C)nc2c1CCC2 (centres undefined),-8.8%,-18.0%
CC(C)(C)C(=O)N1CCN(C(c2ccccc2)c2ccccc2)CC1,-8.7%,-16.4%
C[C@@H]1CNC(=O)c2c(C(=O)N[C@@H](Cc3c[nH]c4ccccc34)C(=O)OC(C)(C)C)ncn21,-13.8%,-9.2%

# (cont.)
SMILES,Vaccinia Venus,VACV mCherry inh
COc1cccc(C(C(=O)NC2CCCC2)N(C(=O)c2ccco2)c2cccc(C(C)=O)c2)c1OC (centres undefined),-13.2%,-20.1%
CCCCCNC(=O)c1ccc(NS(=O)(=O)c2ccc3[nH]c(=O)[nH]c3c2)cc1,-11.5%,i
O=C(N[C@H]1C/C=C\C[C@@H](CC(=O)N(CCO)Cc2ccccc2)C(=O)N2CCC[C@H]2COC1=O)OCC1c2ccccc2-c2ccccc21,u,i
O=C(CCn1ccnc1)Nc1nc2ccccc2[nH]1,-9.0%,-1.4%
CCOC(=O)C1(CCOC)CCN(Cc2cc3ccccc3s2)CC1,-12.6%,-18.4%
COc1ccc(N2CCN(C(=O)CN3C(=O)NC4(CCCCC4C)C3=O)CC2)cc1 (centres undefined),-1.8%,i
CC(C)Cc1ccc(C(=O)NCCOc2ccccc2)o1,1.4%,-12.8%
O=C(CNC(=O)c1ccco1)OCC(=O)c1ccccc1,1.2%,-9.4%
COc1cccc(-n2ccn(CC(=O)NCCc3ccccc3)c(=O)c2=O)c1,-20.5%,i
CCOCCCNC(=O)C1CCC(CNS(=O)(=O)c2ccc(OC)cc2)CC1 (centres undefined),-10.3%,i
COCCn1c(SCC(=O)NCc2ccc(OC)c(OC)c2)nc2ccccc21,-21.4%,i
CCc1ccccc1NC(=O)C/C(C)=N/NC(=O)COc1ccccc1C,-0.7%,u
CCN(CC)C(=O)CSc1nnc(C2CCCCC2)o1,-7.7%,-14.1%
CC1CCCCN1C(=O)C(=O)c1cn(CC(=O)N2CCCC2)c2ccccc12 (centres undefined),-12.6%,-16.9%
Cc1c(C(=O)N2CCCCCC2)c(S(=O)(=O)Nc2ccccc2F)c(C)n1C,0.0%[7.34 µM],i[7.34 µM]
CN(C)CC/C=C1/c2ccccc2Sc2ccc(Cl)cc21,u,-12.1%
O=c1[nH]c2ccccc2nc1Cc1ccccc1,-15.3%,-2.0%
O=C1Nc2cc(C(F)(F)F)ccc2N2CCCCC12 (centres undefined),-7.2%,-12.8%
Brc1ccc(-c2cn3ccccc3n2)cc1,3.2%,-0.2%
Cc1ccc(NC(=S)Nc2ccc(Cl)c(Cl)c2)c(OC(F)F)c1,u,i
Cc1ccc(/C=C/C(=O)OCC(=O)Nc2ccccc2Sc2ccccc2)cc1,-9.9%,i
O=C1COc2ccc(C(=O)COC(=O)c3ccccc3Cl)cc2N1,-13.3%,i
COc1cc(/C=N/NC(=O)CCN2CCN(c3ccccc3)CC2)cc(OC)c1OC,-23.0%,u
COc1cccc(-c2nc(Cn3c(=O)cc(C)c4c(C)nn(-c5ccccc5)c43)c(C)o2)c1OC,0.5%,1.7%
Cc1ccc(NC(=O)Nc2cnccn2)cc1,u,u
COc1cccc(-c2cc(C(F)(F)F)n3nc(C(=O)N4CCCCC4c4cccnc4)cc3n2)c1 (centres undefined),-13.3%,i
CC(C)C(=O)NC(=S)Nc1nnn(C)n1,-18.1%,-12.1%
O=C(Nc1ccc(Cl)cc1)[C@@H]1[C@@H]2C(=O)N(c3ccc(Cl)cc3)C(=O)[C@@H]2[C@H]2C=CC=NN21,-5.8%,i
CN1CCN(S(=O)(=O)c2ccc(NCc3ccc4c(c3)OCO4)nc2)CC1,-2.5%,-11.7%
CC1=Nc2nc(N3CCCCC3)c(C#N)c3c4c(nc(c23)N1)N(c1ccc(C(C)C)cc1)C(=O)C4,-5.7%,-12.5%
